From PubChem BioAssay
Rango-impB inh = qHTS Assay for Inhibitors of Rango (Ran-regulated importin-beta cargo) - Importin beta complex formation; Rango CFP/YFP FRET sensor + importin beta, 45 min; Potency, µM (doses to about 92.2 µM), without a hit: top-dose inhibition of complex formation; actives 0.031% (n = 340,000); Importin subunit beta-1 (Homo sapiens), Q14974; active = rising FRET ratio curve, often small or poorly fitted; inconclusive = mostly compound fluorescence or quenching in the first reads; inactive = flat curves in all reads;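 further: potency means the concentration at half of the fitted maximal effect; 0% = DMSO wells and 100% = buffer wells lacking importin beta; nearly all actives have a fitted effect of over 15% in size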
Target sequence (Q14974 whole entry, looked up): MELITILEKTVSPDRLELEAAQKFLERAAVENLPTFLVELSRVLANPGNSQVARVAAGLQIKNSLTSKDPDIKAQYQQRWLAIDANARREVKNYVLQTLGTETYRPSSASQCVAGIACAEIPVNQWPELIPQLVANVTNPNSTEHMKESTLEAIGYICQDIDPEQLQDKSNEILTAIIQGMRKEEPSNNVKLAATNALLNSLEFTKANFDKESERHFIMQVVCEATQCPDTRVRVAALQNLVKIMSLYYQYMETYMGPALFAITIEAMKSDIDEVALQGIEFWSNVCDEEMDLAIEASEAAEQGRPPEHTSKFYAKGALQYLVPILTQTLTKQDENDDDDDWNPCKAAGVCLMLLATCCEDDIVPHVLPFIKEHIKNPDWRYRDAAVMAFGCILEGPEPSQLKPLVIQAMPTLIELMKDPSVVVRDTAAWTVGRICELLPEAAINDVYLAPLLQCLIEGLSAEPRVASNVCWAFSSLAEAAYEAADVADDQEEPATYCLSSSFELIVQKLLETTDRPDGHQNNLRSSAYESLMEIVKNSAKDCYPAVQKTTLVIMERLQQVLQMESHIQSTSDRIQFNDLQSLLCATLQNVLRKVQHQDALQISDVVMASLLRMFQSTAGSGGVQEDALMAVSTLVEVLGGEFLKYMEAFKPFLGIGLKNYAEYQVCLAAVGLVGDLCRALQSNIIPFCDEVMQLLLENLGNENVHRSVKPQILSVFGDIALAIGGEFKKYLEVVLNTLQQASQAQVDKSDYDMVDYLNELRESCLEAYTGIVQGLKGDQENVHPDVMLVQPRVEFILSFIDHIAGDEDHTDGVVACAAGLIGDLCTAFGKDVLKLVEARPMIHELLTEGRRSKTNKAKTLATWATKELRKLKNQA
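FRET biosensor (snurportin 1 IBB flanked by EYFP and cerulean), 50 nM, with compound 5 min, then 0.125 microM importin beta in PBS, 1 mM DTT, 0.02% Tween-20, 0.1% BSA. CFP/YFP ratio read after 45 min at room temperature; pre-read flags interference.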
GLA inh pH 4.5 = qHTS Assay for Inhibitors of Human alpha-Galactosidase at pH 4.5. 230,000 tested, under 10 active. activity change, negative = inhibition, % at 105 µM. purified enzyme, 4-MU-alpha-Gal fluorescence, pH 4.5; inconclusive = small, poorly fitted or top-dose-only inhibition, or a rising curve; inactive = flat fitted curve, though single readings scatter; no compound was filed as active;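 further: 0% = full activity with enzyme and -100% = basal without enzyme; dose as in the result columns while the protocol names 77 µM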
miR-21 reporter = qHTS Assay for Modulators of miRNAs and/orActivators of miR-21; HeLa miR-21 FLuc reporter, luciferase, 48 h; Potency, µM (highest dose often 38.3 µM), for inactives: at the top dose reporter change, positive = more light; 340,000 tested, under 10 active; active = well fitted rising curve with a large enough effect; inconclusive = small, poorly fitted or top-dose-only effect; inactive = no such curve, though single readings can be large or run the other way;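 further: % of control where 0% means no effect; miR-21 action dims this reporter so a rising signal means less miR-21 action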
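HeLa miR-21-FLuc reporter line, endogenous miR-21; 2000 cells/well in DMEM/10% FBS; compound titration up to ~40uM final, 48 h, 37 degree Celsius; luciferase detection reagent, 15 min lysis, CCD luminescence.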
Rango release inh = qHTS Assay for Inhibitors of RanGTP induced Rango (Ran-regulated importin-beta cargo) - Importin beta complex dissociation; Biochemical FRET Rango-importin beta, RanGTP-induced dissociation; Potency, µM (top dose mostly 46.1 µM), without a hit: at the top dose activity change, negative = inhibition; actives 0.071% (n = 340,000); active means falling FRET ratio curve, often poorly fitted, with flat reads before Ran was added; inconclusive means other falling curves, or compound fluorescence or quenching; inactive means flat or rising ratio curve;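 further: potency means the concentration at half of the fitted maximal effect; % of control where 0% means no effect; nearly all actives have a fitted effect of over 45% in size; -100% = wells without RanGTP and RCC1; the record marks most hits as doubtful in a second field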
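Recombinant Rango FRET biosensor (EYFP–snurportin 1 IBB–cerulean CFP10) at 0.1 uM premixed with 0.25 uM importin beta in PBS, 1 mM DTT, 0.02% Tween-20, 0.1% BSA. Compound added 5 min; RanGTP-RCC1 (0.6 uM Ran, 2 mM GTP, 0.2 uM RCC1) then triggers release, read at 45 min.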
The depositor's hits bear a star; ? = inconclusive; · = no result given; & = joins results of further samples. A portion of the library. The share of hits here may be higher or lower than overall.

canonical_smiles | miR-21 reporter | Rango release inh | GLA inh pH 4.5 | Rango-impB inh
NC(=O)N/N=C/c1cc(F)cc(F)c1 | -5% | 12% | 0 | 3.3%
Cc1cc(-c2nnc(SCC(=O)N3C(C)CCCC3C)o2)no1 (configuration not stated) | -5% | -8% | 3 | -1.3%
CCOC(=O)c1cccc(NC(=O)CCn2cccc2)c1 | -12% | 1% | 0 | -0.1%
CCOC(=O)Cn1nnc(-c2ccc(S(C)(=O)=O)cc2)n1 | -3% | -3% | 6 | -0.7%
CC(C)COc1ccc(C(=O)Nc2cc(S(=O)(=O)N3CCOCC3)ccc2N2CCCC2)cc1 | · | -14% | · | -2.2%
O=c1oc(-c2ccco2)nc2ccccc12 | -7% | -10% | 3 | -1.8%
Cc1ccc2nc(CSc3nc(C)nc4c3oc3ccccc34)[nH]c2c1 | · | 13% | · | ?
Cc1ccccc1N1CC(C(=O)Nc2ccc(S(=O)(=O)N3CCOCC3)cc2)CC1=O (configuration not stated) | 1% | 1% | · | 2.8%
O=C(Nc1cc(Cl)cc2c1-c1ccc(Cl)cc1C2O)C(Cl)Cl (configuration not stated) | · | 12% | · | 0.8%
COc1ccc2cc(CN(CCO)C(=O)c3ccccc3F)c(=O)[nH]c2c1 | -9% | 1% | 10 | -2.9%
O=CN1CCN(C(=O)CN2C(=O)c3ccccc3C2=O)CC1 | -4% | 7% | -3 | 0.2%
COc1ccc(C)cc1NC(=O)CC1COc2ccccc2O1 (configuration not stated) | -7% | -4% | 0 | -1.3%

(further entries)
canonical_smiles | miR-21 reporter | Rango release inh | GLA inh pH 4.5 | Rango-impB inh
O=C(COc1ccc(-c2ccccc2)cc1)N1CCN(C(=O)c2cccnc2)CC1 | 1% | 6% | -2 | -0.1%
Cc1cccc(N(CC(=O)NC2CC2)S(=O)(=O)c2ccc(Cl)cc2)c1 | -1% | -11% | · | -0.7%
CCOc1ccc(NS(=O)(=O)c2cc(C(=O)NCCN3CCOCC3)ccc2C)cc1 | · | -2% | · | -1.8%
Cc1nn(-c2ccccc2)c2[nH]c(=O)c(CNCC3CCCO3)cc12 (configuration not stated) | -6% | ? | 5 | ?
O=C(N1CCCCC1)N1CCC(c2nc3ccccc3[nH]2)CC1 | 10% | 11% | 9 | 0.1%
CN1C(=O)c2cccc3c(S(=O)(=O)Nc4ccccc4F)ccc1c23 | -2% | -22% | · | ?
NC(=O)/C(=C\c1ccco1)NC(=O)c1ccc(Br)o1 | · | -8% | · | 0.2%
COCc1cc(C)nc(OCC(=O)N/N=C/c2ccc(-c3cc([N+](=O)[O-])ccc3Cl)o2)c1C#N | -6% | 10% | 0 | 5.1%
Cc1cc(N2C(=O)CC(N3CCN(c4ccc(C(=O)c5cccs5)cc4)CC3)C2=O)no1 (configuration not stated) | -13% | ? | -2 | ?
O=C(NCC(c1cccs1)N1CCOCC1)c1cnc(Cl)c(Cl)c1 (configuration not stated) | · | -3% | · | 3.6%
C[C@@H]1NC(=O)[C@H](CCCN=C(N)N)NC(=O)c2cc([N+](=O)[O-])cc(I)c2OCC[C@@H](C(N)=O)NC1=O | -11% | · | 2 | ·
CC(=O)c1cc(C#N)c(N2CCOCC2)nc1C | -2% | 8% | -3 | 2.3%

Following part.
canonical_smiles | miR-21 reporter | Rango release inh | GLA inh pH 4.5 | Rango-impB inh
CN(CC(CC(=O)O)c1ccccc1)S(=O)(=O)c1ccc(Br)cc1 (configuration not stated) | -9% | 0% | -6 | 6.7%
CCC(=O)Nc1ccc(Oc2ccc3c(c2)C(=O)N(c2ccc(O)cc2)C3=O)cc1 | 5% | -8% | 0 | -3.0%
CCOC(=O)Cn1nnnc1CN(CCc1ccccc1)Cc1cc2cc(CC)ccc2[nH]c1=O | 1% | 11% | -10 | 1.9%
O=C(COc1ccc([N+](=O)[O-])cc1)Nc1cc(S(=O)(=O)N2CCCCC2)ccc1N1CCCCC1 | · | 38% | · | -0.3%
O=C(Nc1ccccc1)[C@@H]1[C@@H]2C(=O)N(c3ccc(F)cc3)C(=O)[C@@H]2[C@H]2C=CC=NN21 | -9% | -6% | -7 | ?
O=C(Nc1ccccc1Oc1ccccc1)c1ccc(Br)o1 | -10% | -10% | -6 | 2.6%
COc1ccc(-c2cc(C(=O)NCC3CCCO3)c3cc(C)ccc3n2)cc1 (configuration not stated) | -26% | -10% | 7 | 8.8%
CC(C)C[C@H]1CN=C(Nc2ccccc2)N1CC1CCC(C(C)(C)C)CC1 (some centres not stated) | · | 4% | · | 0.1%
Nc1nc(Cl)cc(Sc2ccc(F)cc2)n1 | -34% | 2% | 1 | -3.0%
O=c1[nH]c2cc3c(cc2cc1C(c1nnnn1Cc1ccccc1)N1CCCCCC1)OCCO3 (configuration not stated) | 0% | ? | 0 | ?
CCN1C(=O)/C(=C\N2CCN(c3cccc(Cl)c3)CC2)SC1=S | -4% | 10% | 0 | 5.5%
COc1ccc(-c2sc3cc(OC)c(OC)cc3c2C#CCCO)cc1 | · | 2% | · | 2.5%

Among those listed so far, four have an aryl methoxy group.
canonical_smiles | miR-21 reporter | Rango release inh | GLA inh pH 4.5 | Rango-impB inh
COc1ccc2cc(CN(CCO)C(=O)c3ccccc3F)c(=O)[nH]c2c1 | -9% | 1% | 10 | -2.9%
COc1ccc(C)cc1NC(=O)CC1COc2ccccc2O1 (configuration not stated) | -7% | -4% | 0 | -1.3%
COc1ccc(-c2cc(C(=O)NCC3CCCO3)c3cc(C)ccc3n2)cc1 (configuration not stated) | -26% | -10% | 7 | 8.8%
COc1ccc(-c2sc3cc(OC)c(OC)cc3c2C#CCCO)cc1 | · | 2% | · | 2.5%

As entered above.
Rango release inh, O=C(Nc1ccccc1)[C@@H]1[C@@H]2C(=O)N(c3ccc(F)cc3)C(=O)[C@@H]2[C@H]2C=CC=NN21 reads -6%
Rango-impB inh, CC(C)C[C@H]1CN=C(Nc2ccccc2)N1CC1CCC(C(C)(C)C)CC1 (some centres not stated) reads 0.1%
Rango release inh, O=C(COc1ccc([N+](=O)[O-])cc1)Nc1cc(S(=O)(=O)N2CCCCC2)ccc1N1CCCCC1 reads 38%
Rango-impB inh, CCN1C(=O)/C(=C\N2CCN(c3cccc(Cl)c3)CC2)SC1=S reads 5.5%
Rango release inh, COc1ccc(-c2cc(C(=O)NCC3CCCO3)c3cc(C)ccc3n2)cc1 (configuration not stated) reads -10%

Remaining list, next part:
canonical_smiles | miR-21 reporter | Rango release inh | GLA inh pH 4.5 | Rango-impB inh
Cc1ccc(Cl)cc1N1CCN(C(=O)c2cc3c(=O)[nH]c4ccccc4c3n2C)CC1 | -6% | -8% | 5 | -0.2%
CC(=O)c1cccc(NC(=O)C(C)OC(=O)CCn2c(C)csc2=O)c1 (configuration not stated) | · | -8% | · | 2.4%
O=C(Nc1nncs1)C1(c2ccccc2)CCCC1 | 0% | 9% | 6 | 2.8%
COc1ccc(NC(=O)c2cc(-c3ccncc3)nc3ccccc23)c(OC)c1 | · | ? | · | 0.1%
CCOc1cc(NC(=O)c2cccs2)c(OCC)cc1NC(=O)CCC(=O)NCCN1CCOCC1 | 2% | -7% | -2 | 1.2%
Cc1ccc(N2C(=O)N(CC(=O)c3cc(C)ccc3C)C(=O)C2C)cc1 (configuration not stated) | -3% | -2% | -3 | -6.8%
COc1ccc(CCC(=O)Nc2ccc(Cn3ccnc3)cc2)cc1 | -5% | -14% | · | 2.0%
O=C(CNC(=O)c1ccccc1)OCC(=O)c1c[nH]c2ccccc12 | · | 4% | · | -1.1%
C=CCNC(=O)c1c2c(nc3ccccc13)-c1ccccc1CC2 | 6% | 7% | -10 | -3.3%
O=C(O)CCc1ccc(-c2ccc(Cl)cc2)n1Cc1ccco1 | -9% | 1% | 6 | -0.3%
COc1ccc(OC)c(NC(=O)Cn2cc(C(=O)c3ccco3)c3ccccc32)c1 | 18% | -21% | -12 | -5.9%
Cc1ccccc1N=C/C=C1\N(C)c2ccccc2C1(C)C | 23% | 3% | -23 | 1.4%

Full records, quoted from the list. Order of screens: miR-21 reporter | Rango release inh | GLA inh pH 4.5 | Rango-impB inh
O=C(Nc1nncs1)C1(c2ccccc2)CCCC1 reads 0% | 9% | 6 | 2.8%
Cc1ccc(Cl)cc1N1CCN(C(=O)c2cc3c(=O)[nH]c4ccccc4c3n2C)CC1 reads -6% | -8% | 5 | -0.2%
COc1ccc(NC(=O)c2cc(-c3ccncc3)nc3ccccc23)c(OC)c1 reads · | ? | · | 0.1%
Cc1ccc(N2C(=O)N(CC(=O)c3cc(C)ccc3C)C(=O)C2C)cc1 (configuration not stated) reads -3% | -2% | -3 | -6.8%

Remaining list, next part:
canonical_smiles | miR-21 reporter | Rango release inh | GLA inh pH 4.5 | Rango-impB inh
O=C(CNC(=O)c1ccc(S(=O)(=O)N2CCCC2)cc1)N/N=C/c1c(Cl)cccc1Cl | -8% | 0% | -4 | 0.2%
CCOc1ccc(-c2nc(CN3CCCCC3CCn3cccn3)c(C)o2)cc1 (configuration not stated) | -23% | -1% | -6 | -1.5%
C/C(=N\NC(=O)c1ccncc1)c1cccs1 | -35% | -15% | -2 | -1.2%
O=[N+]([O-])c1ccc2nc(-c3ccccc3)cc(-c3ccccc3)c2c1 | -7% | ? | 4 | ?
CCOc1ccc(C(=O)Nc2ccc(C(=O)N3CCOCC3)cc2)c(OCC)c1 | 0% | -12% | · | 0.1%
NS(=O)(=O)c1ccc(NC(=O)COC(=O)C2CC(=O)N(Cc3ccccc3)C2)cc1 (configuration not stated) | -1% | 3% | -26 | 0.1%
COc1ccc(OC)c(NC(=O)Cc2csc(NC(=O)Nc3ccccc3OC)n2)c1 | · | 15% | · | 0.7%
Cc1ccc(C(=O)Nc2cccc(C(=O)N3CCN(C)CC3)c2)cc1 | -34% | 13% | -12 | 1.2%
Cc1cc(C(=O)N[C@@H](c2ccccc2)[C@]2(C)C[C@H]2[C@@H](C)C(=O)Nc2ccc3ccccc3c2)no1 | -10% | -4% | 9&-14 | 1.5%
COc1cc2c(=O)n(CC3CCCO3)c(=O)n(CC(=O)Nc3ccccc3)c2cc1OC (configuration not stated) | 0% | -5% | · | 0.1%
Cc1ccc2nc3c(cc(C(=O)NC4CCCC4)c(=N)n3C3CCCCC3)c(=O)n2c1 | 0% | ? | · | ?
Nc1ccc(N2CCOCC2)c(S(=O)(=O)Nc2cc(Cl)ccc2Cl)c1 | -6% | -6% | 1 | 1.1%

Next part.
canonical_smiles | miR-21 reporter | Rango release inh | GLA inh pH 4.5 | Rango-impB inh
O=C(N/N=C/c1ccccc1)C(O)c1ccccc1 (configuration not stated) | -1% | 16% | · | 2.3%
COc1nc2c(s1)C(=O)NCCC2 | -5% | 5% | 5 | 1.3%
O=C(COc1ccccc1)NC1CCCCC1 | -27% | -3% | 2 | 2.8%
Cn1c(=O)c2c(nc(CN3CCOCC3)n2CC(=O)c2ccccc2)n(C)c1=O | · | -18% | · | 6.3%
COc1cccc(/C=C/C(=O)NCc2ccc3c(c2)OCO3)c1 | -11% | -11% | · | 4.1%
COc1ccc(C2NN=C(c3ccc(C)cc3)S2)cc1 (configuration not stated) | -61% | 52% | · | -0.6%
Cc1c(NC(=O)COc2ncnc3ccccc23)c(=O)n(-c2ccccc2)n1C | 1% | -8% | -8 | 4.9%
CCNc1nc(NCC)nc(NC(N)=S)n1 | -14% | 0% | -1 | 0.6%
Cc1cc(C(=O)O)cc(Br)c1N | -3% | 4% | -8 | -1.9%
C[C@@H]1CN([C@H](C)CO)C(=O)c2cc(NS(=O)(=O)c3cccs3)ccc2O[C@H]1CN(C)Cc1ccccc1 | · | 22% | · | -0.5%
Cc1ccc(NS(=O)(=O)c2c(C)[nH]c(=O)[nH]c2=O)c(Br)c1 | -3% | 1% | · | -0.8%
CCC/C(=N\NC(=O)CCC(=O)NCc1ccccc1)c1ccccc1 | 3% | -11% | -16 | -0.2%
COC1=CC(=O)C[C@@H](C)[C@]12Oc1c(Cl)c(OC)cc(OC)c1C2=O | 12% | -17% | -2 | 3.9%
Nc1c(Cl)cnn(-c2ccccc2)c1=O | · | 32% | · | 1.6%
